Compound activity (PubChem BioAssay)
MARV entry inh: Marburg virus entry inhibition; Marburg virus pseudotyped entry inhibition, cell reporter; control for the full effect not named in the record; about a third of the inactives were read at about 46 µM; Potency, µM (titrated, usually from 37.8 µM), for the others: top-dose activity change, negative = inhibition, actives largely listed as inhibitors; 300,000 tested, 1.8% active; AID 540276; active = well fitted inhibition curve with a large enough effect; inconclusive = small, poorly fitted or top-dose-only effect, or effect the other way; inactive = flat fitted curve, though single readings scatter; tested in HEK293 cells; about a fifth of its hits are not listed in these tables; also: % is scaled to controls: 0 for no effect and ±100 for the full control effect; luciferase read-out
SARS PLpro yeast: inhibitors of SARS-CoV papain-like protease in yeast; Potency, µM (series often up to 32.9 µM), for inactives: top-dose activity, positive = growth rescue; AID 485353; S. cerevisiae expressing SARS-CoV PLpro, growth rescue; control for the full effect not named in the record; 330,000 tested, 0.19% active; also: 0% is about no effect; nearly all actives have a fitted effect of over 55% in size; growth read by luminescence after 48 h
RE007 growth inh: less growth of the S. pombe RE007 Vpr strain. Potency, µM (top dose mostly 92.2 µM), without a hit: at the top dose activity change, negative = less growth. S. pombe RE007 Vpr strain, BacTiter-Glo ATP luminescence, 24 h; control for the full effect not named in the record. 360,000 tested, 0.21% active. AID 651644; active = well fitted falling curve with a large enough effect; inconclusive = small, poorly fitted or top-dose-only effect; inactive = no such curve, though single readings can be large or run the other way;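 also: % is scaled to controls: 0 for no effect and ±100 for the full control effect; nearly all actives have a fitted effect of over 50% in size; the assay follows cell death caused by Vpr and the record does not say whether a fall means rescue or toxicity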
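Fission yeast strain RE007, carrying one chromosomally integrated HIV-1 vpr copy, was seeded at OD 0.01 in PMG+AL medium with 23 nL pinned compound. After 24 h at 30 °C and 99% humidity, viability was read by BacTiter-Glo luminescence.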
Cruzain Triton: blocks cruzain activity in presence of Triton detergent | Potency, µM, inactives show max response, negative = inhibition, usual class: inhibitors | 200,000 tested, 0.43% active | purified cruzain, Z-FR-AMC fluorescence, 0.01% Triton | P25779; active = well fitted curve in the direction sought with a large enough effect; inconclusive = small, poorly fitted or top-dose-only effect, or another doubt; inactive = no such curve, though single readings can be large; an effect the other way counts as inactive or inconclusive;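 also: plate controls were neutral wells for no effect and buffer without enzyme for full effect; nearly all actives have a fitted effect of over 40% in size; top concentration of the series not given in the record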
Target sequence (P25779 123-467 limits assumed): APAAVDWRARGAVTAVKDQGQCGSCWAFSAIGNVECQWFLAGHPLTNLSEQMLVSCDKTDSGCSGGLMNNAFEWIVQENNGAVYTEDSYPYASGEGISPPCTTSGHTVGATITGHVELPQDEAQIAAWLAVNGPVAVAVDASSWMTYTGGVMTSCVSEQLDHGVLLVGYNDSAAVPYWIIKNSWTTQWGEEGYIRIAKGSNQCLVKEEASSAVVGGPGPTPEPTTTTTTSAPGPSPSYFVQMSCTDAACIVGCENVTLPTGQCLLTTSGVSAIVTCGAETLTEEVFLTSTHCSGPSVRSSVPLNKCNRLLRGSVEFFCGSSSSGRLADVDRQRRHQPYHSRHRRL
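Cruzain (1.5 nM) preincubated 15 min at RT with compound in 100 mM sodium acetate pH 5.5, 5 mM DTT, 0.01% Triton X-100. Reaction started with 2 uM Z-FR-AMC; AMC fluorescence (ex 360/em 450 nm) change over 60 s gave rate.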
Cruzain noTriton: cruzain (T. cruzi) inhibition without detergent. purified cruzain, Z-FR-AMC fluorescence, no detergent. Potency, µM, without a hit: max response, negative = inhibition, actives largely listed as inhibitors. 200,000 tested, 2.3% active. P25779; active = well fitted curve in the direction sought with a large enough effect; inconclusive = small, poorly fitted or top-dose-only effect, or another doubt; inactive = no such curve, though single readings can be large; an effect the other way counts as inactive or inconclusive;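 also: plate controls were enzyme without inhibitor for no effect and buffer without enzyme for full effect; nearly all actives have a fitted effect of over 40% in size; top concentration of the series not given in the record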
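Detergent-free condition (0.00005% Triton X-100) in acetate buffer pH 5.5 with DTT. 1.5 nM enzyme and compound were pre-mixed 15 min, then 2 uM Z-FR-AMC substrate added; reaction progress from fluorescence change between first and third reads (60 s).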
2A StopGo: lowers the luciferase signal of an FMDV 2A StopGo reporter; human cells with a luciferase reporter of 2A StopGo recoding; control for the full effect not named in the record; Potency, µM (doses to about 57.9 µM), inactives show top-dose signal change, negative = less light; 410,000 tested, 1.2% active; AID 1159524; active = well fitted falling curve with a large enough effect; inconclusive = small, poorly fitted or top-dose-only effect; inactive = no such curve, though single readings can be large or run the other way; tested in HEK293T cells; also: % is scaled to controls: 0 for no effect and ±100 for the full control effect; nearly all actives have a fitted effect of over 45% in size; luciferase light after 4 h
NS1 function inh: blocks influenza NS1 protein function; S. cerevisiae slowed by influenza A NS1, growth recovery by OD600; Potency, µM (doses to about 46.1 µM), without a hit: top-dose activity, positive = more growth; 270,000 tested, 0.4% active; AID 2326; also: actives are rising curves; nearly all actives have a fitted effect of over 50% in size
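Growth recovery, yeast-based: influenza A NS1 expressed in S. cerevisiae causes slow growth, and suppressors are detected by OD600. The parent strain without NS1 is used as positive control.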
LASV entry inh: inhibitors of Lassa virus binding or cell entry; Lassa virus pseudotype entry inhibition, cell reporter; control for the full effect not named in the record; Potency, µM (series often up to 37.9 µM), for the others: at the highest dose activity change, negative = inhibition, hits mostly inhibitors; 300,000 tested, 1.2% active; AID 540256; active means well fitted inhibition curve with a large enough effect; inconclusive means small, poorly fitted or top-dose-only effect, or effect the other way; inactive means flat fitted curve, though single readings scatter; tested in HEK293 cells; also: % is scaled to controls: 0 for no effect and ±100 for the full control effect; nearly all actives have a fitted effect of over 50% in size; luciferase read-out
* = called active by the depositor; ? = inconclusive; . = no result given; & = joins results of further samples; [ ] = remark or other dose. Unless noted, calls follow the shape of the dose curve; as a rule, active means well fitted rising curve with a large enough effect; inconclusive means small, poorly fitted or top-dose-only effect; inactive means no such curve, though single readings can be large or run the other way. Potency is read from the fitted curve at half-maximal effect.

Second line of a record: MARV entry inh | SARS PLpro yeast | RE007 growth inh | Cruzain Triton | Cruzain noTriton | 2A StopGo | NS1 function inh | LASV entry inh
#1 CCN(CC)C(=O)[C@H]1CC(CC(=O)NCCc2ccccn2)C(=O)N2CCc3c([nH]c4ccc(OC)cc34)[C@]12C (stereo partly specified)
→ 0% | 3% | 1% | . | . | -10% | . | .
#2 CC(C)c1ccc(NC(=S)N2CCN(C)CC2)cc1
→ . | -2% | 4% | . | . | 98%[activator] | 4% | .
#3 CC(C)[C@H](NC(=O)c1ccc(C(C)(C)C)cc1)C(=O)Nc1nnc(C2CC2)s1
→ ? | -1% | -5% | -4.6% | -11% | -11% | 14% | -2%
#4 COc1cc(/C=N/NC(=O)CC23CC4CC(CC(C4)C2)C3)cc(Br)c1OCC(=O)N(C)C
→ ? | 14% | 13% | -2.8% | ? | -19% | 24% | -17%
#5 Cc1nc2c3cc(F)ccc3n(Cc3ccccc3)c2s1
→ -32% | -5% | -4% | -12% | -11% | -25% | -8% | -22%
#6 CCCCCOc1c(Cl)cc(C(=O)N(Cc2ccc(C)o2)C2CCS(=O)(=O)C2)cc1Cl (stereo unspecified)
→ -25%[46.1 µM] | . | . | -9.2% | ? | ? | . | -14%[46.1 µM]
#7 O=C(Cn1ncc2c([nH]c3ccccc32)c1=O)N1CCN(c2ccccn2)CC1
→ . | -1% | -8% | . | . | -12% | 14% | .
#8 O=C(Nc1ncc(Cc2cccc(Cl)c2)s1)C1CCCO1 (stereo unspecified)
→ ? | -1% | 23% | -2.6% | -4% | 63%[activator] | -4% | ?
#9 CCN(CC)S(=O)(=O)c1ccc(Cl)c(C(=O)Nc2nncs2)c1
→ 41% | 1% | 39% | 7.6% | 5% | 0% | -1% | 1%
#10 OC(Cn1cncn1)c1ccc(Cl)cc1 (stereo unspecified)
→ 19% | -4% | -3% | -0.7% | -2% | 3% | 2% | 23%
#11 Cc1ccc(NC(=O)c2ccc(S(=O)(=O)NCc3cccnc3)cc2)c(C)c1
→ 16%[46.1 µM] | 1% | 2% | . | . | -7% | 3% | 1%
#12 Nc1cc(=O)nc(SCC(=O)N(C2CCCCC2)C2CCCCC2)n1-c1ccccc1
→ -6% | 0% | 12% | -13% | ? | -5% | 28% | 3%
#13 CCCCN(C)C1CCN(C(=S)Nc2ccc(OC)cc2)CC1
→ 6%[46.1 µM] | -2% | -13% | . | . | 2% | . | 16%[46.1 µM]
#14 CCN(CC(=O)Nc1c(F)cccc1F)C(=O)C1CC1C (stereo unspecified)
→ -3%[46.1 µM] | 2% | -4% | . | . | -8% | . | -7%
#15 CCc1cccc(NC(=O)CSc2ncc3c(n2)-c2ccc(Cl)cc2N(Cc2ccccc2)S3(=O)=O)c1
→ . | . | . | -1.5% | -3% | -6% | . | 19%[46.1 µM]
#16 CCc1ccccc1NC(=S)N(CCN1CCCCC1)Cc1ccco1
→ ? | 2% | 9% | . | . | -5% | . | 8%
#17 O=C(c1ccco1)N1CCCN(C(=O)c2ccco2)CC1
→ 25% | 0% | 7% | -2.7% | -3% | 0% | 14% | 22%
#18 O=c1[nH]c(SCc2ccc([N+](=O)[O-])cc2)nc2[nH]ncc12
→ 34%[46.1 µM] | 1% | 50% | . | . | 25% | 6% | 1%[46.1 µM]
#19 Cc1cccc(NC(=O)Cn2nc(C(F)(F)F)cc2C2CC2)c1
→ 1% | 2% | -20% | -2.1% | 1% | 0% | 1% | 7%
#20 Cc1ccc2ncccc2c1[N+](=O)[O-]
→ 5%[46.1 µM] | 13% | 2% | 0.0% | 13% | -12% | -2% | -5%
#21 CCOc1ccc(CNc2nnnn2C)cc1OC
→ -22% | 4% | -2% | . | . | -12% | 17% | -6%
#22 O=C(CN1CCN(Cc2ccccc2F)C1=O)NCc1ccco1
→ ? | 4% | -2% | 3.3% | -6% | -1% | 4% | -1%
#23 CCOP(=S)(OCC)SCOC(=O)NCC(=O)OC
→ 22% | 0% | -6% | 5.6% | 2% | -14% | 0% | -4%
#24 Cc1cnc(NC(=O)c2ccc(OCC3CCCO3)cc2)s1 (stereo unspecified)
→ ? | 0% | 13% | . | . | -83% | -4% | 1.8µM*
#25 CCCCCOc1ccc(/C=C/c2c([N+](=O)[O-])c(=O)n(C)c(=O)n2C)cc1
→ ? | -2% | 7% | . | . | ? | 1% | 6%[46.1 µM]
#26 O=C(NCCc1ccc(Cl)cc1)C(=O)NCC(c1cccs1)S(=O)(=O)c1ccccc1 (stereo unspecified)
→ . | . | . | -2.0% | 23% | -30% | . | 0%[46.1 µM]
#27 COc1ccc(CNC(=O)c2c(Nc3ccccc3C)sc(C(=O)c3ccccc3)c2N)cc1
→ . | . | . | -0.3% | ? | 0% | . | ?
#28 O=C(O)C(CO)N=Cc1c(O)c2ccccc2oc1=O (stereo unspecified)
→ ? | 1% | 2% | . | . | -25% | . | ?
#29 CCOC(=O)c1ccc(NCc2ccc3c(c2)OCO3)cc1
→ 6% | -13% | -2% | -6.0% | -5% | 10% | -40% | 4%
#30 Cc1ccc(C(=O)COC(=O)CCC(=O)NC2CCCCC2)cc1[N+](=O)[O-]
→ 1%[46.1 µM] | -1% | 2% | . | . | -13% | -1% | -2%
#31 CCS(=O)(=O)N1CCN(Cc2c[nH]c3ccccc23)CC1
→ 14% | -3% | -19% | . | . | -7% | 0% | -8%
#32 COc1ccccc1-c1nnc(SCC(=O)c2ccc(C3CCCCC3)cc2)n1Cc1ccco1
→ ? | -9% | -2% | -5.9% | 9% | -32% | 27% | ?
#33 COc1ccc(N(C)C(=O)c2cnc(N3CCN(c4ncccn4)CC3)c3ccccc23)cc1
→ -8%&-8% | 11% | 0% | -7.8% | ? | 0% | 0% | ?
#34 CCCCCn1c(=N)c(S(=O)(=O)c2ccc(Cl)cc2)cc2c(=O)n3cccc(C)c3nc21
→ 7%[46.1 µM] | 3% | 1% | . | . | 54%[activator] | -6% | ?
#35 CC(=O)c1ccc(N2CCN(C(=O)C3CCCN3S(=O)(=O)c3cccc4nsnc34)CC2)cc1 (stereo unspecified)
→ . | 1% | 8% | . | . | -18% | 13% | .
#36 O=C(c1ccco1)N1CCN(CC(O)Cn2c3ccccc3c3ccccc32)CC1 (stereo unspecified)
→ 21% | -14% | -23% | -0.8% | -1% | -22% | -33% | ?
#37 Cc1cc(C)cc(OCCCCCNCCO)c1
→ ? | -28% | 9% | 1.0% | -9% | 7% | 1% | 12%
#38 COc1cc2c(c(OC)c1OC)-c1ccc(O)cc1C(NC(C)=O)CC2 (stereo unspecified)
→ ? | . | -10% | . | . | 22% | . | .
#39 O=S(=O)(c1ccc(Cl)cc1)N1CCCC1c1nc2ccccc2s1 (stereo unspecified)
→ 18% | 1% | 27% | -5.0% | -2% | ? | 4% | -4%
#40 Cc1ccc(NC2CCCN(C(=O)c3ccc(F)cc3)C2)cc1C (stereo unspecified)
→ . | -6% | 5% | . | . | -24% | -20% | .
#41 O=C(COc1ccc(Cl)cc1)NC1CN2CCC1CC2 (stereo unspecified)
→ -6% | 3% | 1% | 0.8% | -9% | -22% | -30% | 6%
#42 CCOc1ccccc1NC(=O)C1=C(C)NC(=O)NC1c1cccs1 (stereo unspecified)
→ ? | 6% | -1% | . | . | -20% | 7% | -6%[46.1 µM]
#43 C=CCNC(=O)c1ccc(N(Cc2ccccc2)S(C)(=O)=O)cc1
→ . | 3% | -2% | . | . | -4% | 14% | .
#44 O=C(O)CSc1nnc(Cn2cnc3ccccc32)n1CCc1ccccc1
→ 31% | -10% | 4% | 3.9% | -6% | -16% | -4% | 0%
#45 CN(C)c1nc2c(c(=O)n(C)c(=O)n2C)n1CC(=O)c1cccs1
→ 7%[46.1 µM] | . | ? | . | . | -8% | 4% | 13%
#46 CCCCSP1(=S)NCCCN1
→ 12% | 2% | -18% | 2.0% | 18% | -1% | 4% | -16%
#47 O=C(N/N=C/c1ccccn1)c1cccc(NC(=O)c2ccc(Cl)cc2)c1
→ . | -1% | 10% | . | . | -3% | 1% | .
#48 O=C(/C=C/c1ccc(Br)cc1)N1CCN(Cc2ccccc2)CC1
→ ? | . | -20% | . | . | -19% | . | -10%[46.1 µM]
#49 COC(=O)c1ccccc1S(=O)(=O)N1CCC(C(=O)OCc2cccc(OC)c2OC)CC1
→ 5% | 1% | 39% | . | . | -16% | . | -9%
#50 CCCc1cc(-c2n[nH]c(=S)n2CC)cs1
→ ? | 0% | 7% | . | . | -11% | . | .
#51 CCOc1ccc2[nH]c(=O)c(CN(CCO)C(=O)c3ccc(Br)cc3)cc2c1
→ -20%&-20% | 5% | -16% | 0.7% | -2% | -18% | 1% | -26%
#52 CC(=O)Nc1ccc(NC(=O)COC(=O)Cc2c[nH]c3ccccc23)cc1
→ 4% | -18% | 14% | -1.4% | 4% | -24% | -3% | 1%
#53 CCc1ccc(-n2cc(-c3ccc([N+](=O)[O-])cc3)[nH]c2=S)cc1
→ 11% | -3% | 10% | -4.8% | 25µM* | 2% | -1% | -14%
